quorum sensing: Vibrio cholerae quorum sensing activators, luminescence (AID 686977); 9,400 tested, under 10 active; V. cholerae quorum sensing reporter, luminescence, 6 h; higher luminescence means a stronger effect; most inactives read 0; luminescence at 50 µM unless noted; hits with a dose series show EC50 in µM;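 active means light above mean plus 3 SD and confirmed in a dose series; inconclusive means above that limit without a clear retest; inactive means below it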;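 further: raw light counts without normalisation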
Numbers without * were called inactive; u = inconclusive; [ ] = another dose, or the depositor's remark. This is a subset; rates above refer to the full screens.

| structure | quorum sensing |
| --- | --- |
| CCOC(=O)C1=C(N)c2ccccc2CC1C(C)C (stereo not drawn) | 0 |
| O=C(CSc1ncnc2ccccc12)NCCCO | 40 |
| Cc1noc(C)c1S(=O)(=O)NC1CCN(Cc2ccccc2)CC1 | 80 |
| C/C(=C\C#N)n1nc(C)cc1N | u |
| COc1cc(/C=N\NC(=O)Cn2nnc3ccccc32)cc(OC)c1OC | 40 |
| Brc1ccc(-c2csc(N3CCC(c4ccccc4)C3)n2)cc1 (stereo not drawn) | 0 |
| NCCc1c[nH]c2ccc(O)cc12 | 0[10 µg/mL] |
| Clc1ccccc1OCCCCn1ccnc1 | 0 |
| CS(=O)(=O)NCc1ccc(C(=O)NC2CCCCC2)cc1 | 0 |
| O=c1cc(CSc2nnnn2-c2ccccc2)nc2scc(-c3ccccc3)n12 | 0 |
| Cc1cc(C)c(S(=O)(=O)NCc2cn3c(C)csc3n2)cc1C | 0 |
| O=C1C(C=Nc2ccccc2)=C(O)c2ccccc21 | 0 |
| CC(=O)Nc1ccc(S(=O)(=O)Nc2ccc(NC(=O)c3ccco3)cc2)cc1 | 0 |
| Oc1ccccc1C1=Nc2ccccc2N=C(c2cccs2)C1 | 0 |
| CCC(=O)N(Cc1ccc2c(c1)OCO2)Cc1cc2cc(OC)ccc2[nH]c1=O | 40 |
| Cc1ccc(N(C)C(=O)N2CCN(S(=O)(=O)c3ccc(C)cc3)CC2)cc1 | 0 |
| CCN(Cc1ccccc1)C(=O)Cn1cc2c(n1)CCCC2 | 0 |
| CCN(CC)c1cnn(C/C(=N\OC)c2ccc(Cl)cc2)c(=O)c1Br | 40 |
| C[C@@H]1C[C@H]2[C@@H]3C[C@H](F)C4=CC(=O)C=C[C@]4(C)[C@@]3(Cl)[C@@H](O)C[C@]2(C)[C@H]1C(=O)COC(=O)C(C)(C)C | 40[10 µg/mL] |
| COC(=O)C1=CCCN(C)C1 | 40[10 µg/mL] |
| N#CCc1ccc(NS(=O)(=O)c2ccc(N3CCCC3=O)cc2)cc1 | 0 |
| Cc1ccc(-c2csc(-c3c[nH]c4ccccc34)n2)cc1 | 0 |
| O=C(Cc1ccccc1)NCCn1ccc2ccccc21 | 0 |
| CCCNC(=O)N1CCN(c2nc(C(C)C)c3c(c2C#N)CC(C)(C)OC3)CC1 | 40 |
| CN(C)C(=O)Oc1cc(OC(=O)N(C)C)cc(C(O)CNC(C)(C)C)c1 (stereo not drawn) | 0[10 µg/mL] |

| structure | quorum sensing |
| --- | --- |
| CN1CCC(=C2c3ccccc3C=Cc3ccccc32)CC1 | 40[10 µg/mL] |
| O=C(Cn1cccc1C(=O)c1ccccc1)NCCCN1CCOCC1 | 40 |
| CN(CC(=O)Nn1cnnc1)S(=O)(=O)c1ccccc1 | 0 |
| CCOC(=O)N1CCC(Nc2ccc3nnc(-c4ccccc4)n3n2)CC1 | 0 |
| O=Cc1cn(-c2ccccc2)nc1-c1cc2cc(O)ccc2oc1=O | 0 |
| CCc1ccccc1NC(=O)CSc1ncn[nH]1 | 40 |
| C=CCCCCCCCCC(=O)Nc1c[nH]c(=O)[nH]c1=O | u |
| CCCCNC(=O)CC1Nc2ccccc2NC1=O (stereo not drawn) | 0 |
| CN1C(=O)CC(N2CCC(C(N)=O)(N3CCCCC3)CC2)C1=O (stereo not drawn) | 0 |
| O=S(=O)(NCc1ccccc1)c1ccc(S(=O)(=O)N(Cc2cccs2)CC2CCCO2)cc1 (stereo not drawn) | 40 |
| Fc1ccc(-c2cc3nc(-c4ccccc4)cc(N4CCOCC4)n3n2)cc1 | 0 |
| COc1ccc(OC)c(CCNC(=O)CC2Oc3ccccc3NC2=O)c1 (stereo not drawn) | 0 |
| CC(C)C(NC(=O)c1cccs1)c1nnc(SCC(=O)Nc2nccs2)n1C (stereo not drawn) | 40 |
| CN(c1ccccc1)S(=O)(=O)c1ccc(NC(=S)Nc2ccccc2)cc1 | 40 |
| CC1CCN(c2cc(=O)n(C3CCCCC3)c(=O)[nH]2)CC1 | 80 |
| Cc1nnnn1-c1cccc(C(=O)O)c1 | 0 |
| CCCCCCCCCCCCCCCC[N+](C)(C)CCN(Cc1ccc(OC)cc1)c1ncccn1 | 0[10 µg/mL] |
| COc1cc(NC(=O)C2CCCN(S(=O)(=O)c3cnc[nH]3)C2)cc(OC)c1 (stereo not drawn) | u |
| CN(C)[C@@H]1C(=O)C(C(N)=O)=C(O)[C@@]2(O)C(=O)C3=C(O)c4c(O)ccc(Cl)c4[C@@H](O)[C@H]3C[C@@H]12 | 0[10 µg/mL] |
| CCOc1cc(S(=O)(=O)N2CCC(Cc3ccccc3)CC2)c(OCC)cc1-n1cnnn1 | 0 |
| CC(C)CCNC(=O)C1CCN(S(=O)(=O)c2ccc3c(c2)CCC(=O)N3)CC1 | 40 |
| CCN(CC)CCNC(=O)c1cc2c(-c3ccc(Cl)cc3)nn(C)c2s1 | 0 |
| COCCOC(=O)C1=C(C)NC(=O)NC1c1c(F)cccc1Cl (stereo not drawn) | 0 |
| Cc1cc(Nc2ccc(C)c(Br)c2)n2nc(C)nc2n1 | 40 |
| COc1ccc(-c2cc(CCCC(=O)N3CCN(c4ccc(OC)cc4)CC3)no2)cc1 | 0 |

| structure | quorum sensing |
| --- | --- |
| C[C@H](CS)C(=O)N1CCC[C@H]1C(=O)O | 0[10 µg/mL] |
| C=CCNC(=O)CN(c1cccc(Br)c1)S(C)(=O)=O | 0 |
| CC(=O)c1c(C)[nH]c(C(=O)OCC(=O)C(C)(C)C)c1C | 40 |
| COc1cccc(C2CC(=O)NC(SC)=C2C#N)c1 (stereo not drawn) | 0 |
| Nc1c(O)cccc1C(=O)CC(N)C(=O)O (stereo not drawn) | 0[10 µg/mL] |
| CCSc1cc(N2CCCC2)nc(-c2ccccc2)n1 | 0 |
| O=C(NCc1cccs1)C1CCN(S(=O)(=O)c2cccc3cccnc23)CC1 | 40 |
| CCOC(=O)N1CCN(c2c(N3CCOCC3)c(=O)c2=O)CC1 | 40 |
| CCOC(=O)c1c(NC(C)=O)sc2c1CCCNC2=O | 0 |
| CCOC(=O)c1ccccc1NC1c2ccccc2C(=O)N1C1CCN(C(=O)OCC)CC1 (stereo not drawn) | 0 |
| O=S(=O)(Nc1cccc2nsnc12)c1ccccc1 | 80 |
| Cn1c(C(=O)NCc2ccccn2)cc2c(=O)n(C)c3ccccc3c21 | 0 |
| CSc1nnc(C2CCCN2)n1C (stereo not drawn) | 0 |
| COc1cc(OC)cc(C(=O)NC2CCSC2=O)c1 (stereo not drawn) | 0 |
| CCN1CCN(Cc2nc3c(c(=O)n(C)c(=O)n3C)n2CC(=O)c2ccccc2)CC1 | 0 |
| CCOC(=O)CSc1nc2nc(C)cc(C)n2n1 | 0 |
| O=C(Nn1cnc2ccccc2c1=O)c1ccccc1Cl | 0 |
| COc1ccc(C2CC(c3ccc(F)cc3)Nc3nc(N)nn32)cc1OC (stereo not drawn) | u |
| CN(CC(=O)N1CC=C(c2ccccc2)CC1)S(=O)(=O)c1cnc[nH]1 | 40 |
| O=C(c1ccccc1)N1CCN(c2ccc(NCc3ccc4c(c3)OCO4)cc2)CC1 | 40 |
| COc1ccc(N(CC(=O)NN=C2CCCCCCC2)S(=O)(=O)c2ccccc2)cc1 | 0 |
| CCN(c1ccc(C(O)(C(=O)OC)C(F)(F)F)cc1)S(=O)(=O)c1ccc(C)cc1 (stereo not drawn) | 40 |
| Cc1noc(NS(=O)(=O)c2ccc(NC(=O)CSc3nc4c(cc3C#N)CCCC4)cc2)c1C | 40 |
| OCCCc1nc2n(n1)C(c1ccccc1)C=C(c1ccccc1)N2 (stereo not drawn) | 0 |
| CCC(CC)C(=O)NCCc1ccc(S(N)(=O)=O)cc1 | 0 |

| structure | quorum sensing |
| --- | --- |
| Nc1nc2ccc(S(=O)(=O)N3CCCCC3)cc2s1 | 0 |
| Cc1ccc(NS(=O)(=O)c2ccc3c(c2)oc(=O)n3C)cc1F | 40 |
| COc1cc(C2c3c(-c4ccccc4)n[nH]c3C(=O)N2c2ccc(C(=O)O)cc2)ccc1O (stereo not drawn) | 0 |
| CN(Cc1ccco1)C(=O)C(Cc1ccccc1)NS(=O)(=O)c1ccc2c(c1)CCC(=O)N2 (stereo not drawn) | 0 |
| COc1ccc(Cn2c(=O)[nH]c3cc(C(=O)NCCCN4CCCC4=O)ccc3c2=O)cc1 | 0 |
| Cc1ccc(-n2ncc3c(=O)n(CC#N)cnc32)cc1 | 0 |
| Cc1sc(-c2ccncc2)nc1OC(=O)c1ccccc1 | 40 |
| COc1cccc(/C=N/NC(=O)CC(=O)NCCc2ccc(OC)c(OC)c2)c1 | 0 |
| Cc1ccc(NC(=O)C2CCCN2S(=O)(=O)c2ccc3c(c2)CCC(=O)N3)cc1Cl (stereo not drawn) | 0 |
| CC1CCCN(C(=O)C2CCN(S(=O)(=O)c3cccc4cccnc34)CC2)C1 (stereo not drawn) | u |
| O=C(/C=N/O)Nc1ccc(F)cc1 | 0 |
| O=C(c1cc(-c2ccc(Cl)c(Cl)c2)on1)N1CCCC1 | 0 |
| CCOc1ccc(N(CC(=O)Nc2ccc3c(c2)OCCO3)S(=O)(=O)c2c(C)noc2C)cc1 | 40 |
| CCC(c1nnnn1CS(=O)(=O)c1ccc(C)cc1)N1CCN(c2nc3ccccc3s2)CC1 (stereo not drawn) | 0 |
| CCc1nc(SCc2cccnc2)c2c(=O)n(C)c(=O)n(C)c2n1 | 0 |
| CCn1c(SCC(=O)Nc2ccc(S(=O)(=O)Nc3onc(C)c3C)cc2)nnc1-c1ccccc1 | 0 |
| Cn1ccnc1SCC(=O)Nc1cccc(O)c1 | 40 |
| Cc1c(NC(=O)c2cc(CC(C)C)on2)c(=O)n(-c2ccccc2)n1C | 0 |
| O=c1[nH]c(=O)n(CCc2ccccc2)c(O)c1C=NCc1ccc2c(c1)OCO2 | 0 |
| CCOC1O[C@H]([C@@H](COCc2ccccc2)OCc2ccccc2)[C@H](OCc2ccccc2)[C@H]1O (stereo partly drawn) | 40[10 µg/mL] |
| C/C(N)=C(/C#N)C(=O)CSc1nnnn1-c1ccc(C)cc1 | u |
| Cc1cc(C)n2c(Nc3ccc4c(c3)OCCO4)c(-c3ccco3)nc2n1 | 40 |
| Cc1oc2cc(O)ccc2c(=O)c1Oc1ccccc1Br | 0 |
| CCn1c(SC(C)C(=O)OC)nnc1-c1c[nH]c2ccccc12 (stereo not drawn) | 40 |
| CC(NC(=O)NCCCC(=O)O)(C(F)(F)F)C(F)(F)F | 40 |

| structure | quorum sensing |
| --- | --- |
| CC(C)Cc1cc(C(=O)NCCN2CCOCC2)no1 | 240 |
| CC(C)(C)c1ccc(-c2nnc(SCCC#N)n2C2CCCC2)cc1 | 0 |
| O=[N+]([O-])c1ccc(Cl)c(/C=N/N2CCN(Cc3ccc(Cl)cc3)CC2)c1 | 0 |
| CC(C)Cn1cnc2c1c(=O)n(CC(O)c1ccccc1)c(=O)n2CC(C)C (stereo not drawn) | 0 |
| CCN(CC)CCNC(=O)c1cn(C)c2ccc(S(=O)(=O)N(C)C3CCCCC3)cc2c1=O | 0 |
| COc1ccc(N2C(=O)C3CCCN3C2c2cc(OC)c(OC)c(OC)c2)cc1 (stereo not drawn) | 80 |
| CC(C)(C)C(=O)c1cn(CC(=O)NCc2ccc3c(c2)OCO3)c2ccccc12 | u |
| CN(N)C(=S)NCc1ccccc1 | 0 |
| CSC1=NCCN1C(=O)c1ccco1 | 0 |
| CCCSc1nnc2nc3c(nn12)c1ccccc1n3C | 0 |
| Cc1ccccc1N1CCN(Cc2c(C#N)c3ccccc3n2C)CC1 | 0 |
| CC1(C)Cc2c(C#N)c(N3CCN(C(=O)c4ccccc4)CC3)nc(Cc3ccccc3)c2CO1 | 0 |
| Cc1ccc(S(=O)(=O)N(C)Cc2nc(-c3ccc(Br)cc3)no2)cc1 | 40 |
| CN1C[C@H](C(=O)N[C@]2(C)O[C@@]3(O)[C@@H]4CCCN4C(=O)[C@H](Cc4ccccc4)N3C2=O)CC2c3cccc4[nH]cc(c34)C[C@H]21 (stereo partly drawn) | u |
| CCOc1ccc(S(=O)(=O)n2nc(C)cc2C)c2ccccc12 | 240 |
| Cc1ccc(Oc2nccc(-c3ccc(Cl)cc3)n2)cc1 | 0 |
| Cc1nnc(NC(=O)CCCN2C(=O)c3ccccc3C2=O)s1 | u |
| O=S(=O)(c1ccc(SCCO)nc1)N1CCCC1 | 0 |
| O=C1OCC/C1=C\c1ccccc1O | 40 |
| CC1CCCC(N2CCN(C(=O)c3cccc(F)c3)CC2)C1 (stereo not drawn) | 0 |
| Cc1cc(NC(=O)CSc2nnc(Nc3ccccc3)s2)no1 | 0 |
| CCc1nc2oc3cc(OC)ccc3c(=O)c2c(=O)n1Cc1ccco1 | 0 |
| O=c1cc(CO)oc(C(Nc2ccccn2)c2cccc(F)c2)c1O (stereo not drawn) | 0 |
| COc1ccc(OC)c(C2=NOC(C(=O)Nc3cc(C)nn3-c3ccccc3)C2)c1 (stereo not drawn) | 0 |
| CC(C)CCN1C(=O)c2ccccc2C1C(=O)NCc1cccnc1 (stereo not drawn) | 0 |

| structure | quorum sensing |
| --- | --- |
| CCn1c(C(=O)N2CCC(C(=O)NCc3cccs3)CC2)cc2sccc21 | 40 |
| Cc1cccc(-n2c(SCC(N)=O)nnc2-c2ccccn2)c1C | 40 |
| COc1ccc(OC)c(S(=O)(=O)N2CCC(C(=O)N3CCN(Cc4ccccc4)CC3)CC2)c1 | 0 |
| O=C(Nc1ccccc1N1CCCC1)c1ccco1 | 0 |
| C=CCn1c(-c2cc(Cl)ccc2OC)n[nH]c1=S | 0 |
| O=c1c2ccccc2nc(SCc2cc(F)ccc2F)n1C1CCCC1 | 40 |
| NC(=O)CSc1nnnn1-c1ccc(OC(F)(F)F)cc1 | 40 |
| CC(C)CCOc1ccc(C(=O)C[N+]2(C)CCOCC2)cc1 | 320 |

High-throughput results (PubChem BioAssay)
